High-throughput results (PubChem)
TRPML1 blocker: human mucolipin-1 channel inhibition. 390,000 tested, 0.02% active. TRPML1-inducible cells, Ca2+ dye fluorescence, FDSS; active compounds read low; inhibition of EC80 agonist-evoked calcium signal. activity change, negative = inhibition, % (test concentration not listed). Q9GZU1; in the data active means activity change below about -50%; inconclusive means about -30% to -50%; inactive means above about -30%;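 note: stimulus is agonist 54-4 at its EC80 concentration; % is set by controls: 0 for no effect and ±100 for the full control effect; compound concentration not given in the record; the text of the record puts the active cut at -80%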
Target sequence (Q9GZU1 whole entry, looked up): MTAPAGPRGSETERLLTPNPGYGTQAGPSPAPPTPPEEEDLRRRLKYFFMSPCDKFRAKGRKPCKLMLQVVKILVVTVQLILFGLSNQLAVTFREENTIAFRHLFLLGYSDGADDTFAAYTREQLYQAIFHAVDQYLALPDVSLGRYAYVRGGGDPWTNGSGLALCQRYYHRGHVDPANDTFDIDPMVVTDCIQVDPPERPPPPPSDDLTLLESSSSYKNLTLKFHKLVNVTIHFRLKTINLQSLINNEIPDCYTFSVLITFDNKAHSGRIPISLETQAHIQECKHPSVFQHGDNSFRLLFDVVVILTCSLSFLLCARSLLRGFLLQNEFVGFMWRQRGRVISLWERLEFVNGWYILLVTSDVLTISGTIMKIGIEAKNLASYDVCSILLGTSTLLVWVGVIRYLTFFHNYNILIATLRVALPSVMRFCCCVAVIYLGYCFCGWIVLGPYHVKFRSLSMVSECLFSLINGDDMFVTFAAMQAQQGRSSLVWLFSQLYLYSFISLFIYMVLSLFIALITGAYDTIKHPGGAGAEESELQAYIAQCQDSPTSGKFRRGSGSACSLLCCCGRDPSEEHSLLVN
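Tet-induced TRPML1-DL cells loaded with Ca8 no-wash calcium dye were read kinetically on FDSS. Compound addition was followed by EC80 agonist 54-4 (4 uM final); inhibition was read over 110 s.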
D2 ag: activates the human D2 dopamine receptor; P14416; DiscoveRx PathHunter D2 beta-arrestin, luminescence, 90 min; 100% = 57 uM dopamine signal; activation, % (concentration not given with the values); 360,000 tested, 0.084% active; in the data active = activation above about 40%; inconclusive = about 15% to 40%; inactive = below about 15%; note: compound concentration not given in the record; the text of the record calls up to 30% inactive
Target sequence (P14416 whole entry, looked up): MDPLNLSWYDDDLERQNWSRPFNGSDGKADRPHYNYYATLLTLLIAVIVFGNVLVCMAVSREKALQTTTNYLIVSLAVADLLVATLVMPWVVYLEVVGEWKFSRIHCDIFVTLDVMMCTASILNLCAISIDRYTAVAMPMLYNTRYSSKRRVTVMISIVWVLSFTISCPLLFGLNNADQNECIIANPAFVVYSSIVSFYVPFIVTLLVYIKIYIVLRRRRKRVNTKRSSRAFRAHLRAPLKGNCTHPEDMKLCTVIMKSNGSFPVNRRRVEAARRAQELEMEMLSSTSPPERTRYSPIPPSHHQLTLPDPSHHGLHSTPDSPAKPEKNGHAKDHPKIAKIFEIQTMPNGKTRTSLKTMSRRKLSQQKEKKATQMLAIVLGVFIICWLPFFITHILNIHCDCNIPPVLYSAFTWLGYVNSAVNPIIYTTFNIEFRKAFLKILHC
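DiscoveRx PathHunter D2 beta-arrestin cells (2,100/well) attached overnight, then compound-stimulated 90 min at 37 C in HBSS/10 mM HEPES/0.1% Tween-20 buffer; beta-galactosidase complementation read by luminescence after 1 h at ambient temperature. Dopamine 57 uM final (EC100) as control.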
PINK1 expr mod: modulators of PINK1 expression; PINK1 immunofluorescence, high-content cytometry, 24 h; Potency, µM (highest dose often 76.6 µM), for the others: at the top dose activation (PINK1 increase), hits mostly activators; 410,000 tested, 0.2% active; active = well fitted activation curve with a large enough effect; inconclusive = small, poorly fitted or top-dose-only effect; inactive = flat fitted curve, though single readings scatter; cell line not stated here;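 note: potency is the fitted concentration of half-maximal effect; % of control where 0% means no effect; nearly all actives have a fitted effect of over 65% in size; a mitochondrial uncoupler was the plate control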
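PINK1 protein level read as immunofluorescence by microplate cytometer in a fixed, stained stable cell line after 24 h exposure to five compound concentrations, with CCCP as control.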
TRPML1 ag: human mucolipin-1 channel agonism | TRPML1-expressing cells, Ca2+ dye fluorescence, FDSS; host cell line not named in the record; reference of the full effect not given here | activation, % (test concentration not listed) | 410,000 tested, 0.12% active; in the data active = activation above about 50%; inconclusive = about 30% to 50%; inactive = below about 30%; note: 0% is about no effect; the text of the record puts the active cut at 80%
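TRPML1-DL cells, Tet-induced overnight (~16 h, 37 degrees C), loaded 45-90 min at room temperature with Ca8 no-wash calcium dye plus quencher. FDSS fluorescence: 10 s baseline, compound pin-transfer, 110 s agonist read, then EC80 54-4 (4uM final) and 110 s antagonist read.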
Six1-Eya2 inh: inhibitors of human Six1/Eya2 interaction; AID 651725; AlphaScreen GST-Six1/His-Eya2 binding, biochemical; active compounds read low; control for the full effect not named in the record; activity change, % (no concentration beside the values); 360,000 tested, 0.56% active; Q15475+O00167; in the data active = activity change below about -65%; inconclusive = about -30% to -65%; inactive = above about -30%; note: % is set by controls: 0 for no effect and ±100 for the full control effect
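Homogeneous AlphaScreen proximity assay pairing GST-Six1 with His-tagged Eya2 (added as 5X mix: 250 nM and 500 nM) in 50 mM Tris pH 8.0, 300 mM NaCl, 1 mM TCEP. Glutathione donor and nickel acceptor beads; 1 h, 37 °C, dark.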
D2 potentiator: potentiates the human D2 dopamine receptor allosterically; DiscoveRx D2 beta-arrestin cells, luminescence, 90 min; 100% = 57 uM dopamine signal; potentiation, % (test concentration not listed); 360,000 tested, 0.23% active; AID 624464; active = potentiation of 50% or more; inconclusive = 30% to 50%; inactive = 30% or less;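 note: compound concentration not given in the record; tested on top of an EC20 dose of dopamine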
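PathHunter D2 cells, attached overnight at 37 deg C, received compound in DMSO plus dopamine at EC20 (50 nM final) for 90 min at 37 deg C. Beta-arrestin recruitment was read as luminescence after 1 h with detection reagent at ambient temperature.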
Active calls of the source: *; ? = inconclusive; / = not tested or not shown; [ ] = remark or other dose.

cpd | SMILES | TRPML1 blocker | D2 ag | PINK1 expr mod | TRPML1 ag | Six1-Eya2 inh | D2 potentiator
1 | COc1ccc(CN2C(=O)c3cccnc3C2=O)cc1S(=O)(=O)NCc1ccc(C)cc1 | 11 | -2.2 | 1.8% | -0.4 | 4 | -2
2 | O=S1(=O)N=C(N(CCO)/N=C/c2ccccc2)c2ccccc21 | -16 | 2.5 | 1.1% | 1.2 | ? | -4
3 | CCCc1cc(=O)oc2c3c(cc(OCC(=O)NCC4CCC(C(=O)O)CC4)c12)OC(C)(C)CC3 (stereo not given) | / | -3.2 | -0.2% | / | 3 | -24
4 | COc1ccc(C(=O)OCC(=O)N2C(C)CCCC2C)cc1[N+](=O)[O-] (stereo not given) | -8 | 0.8 | -1.4% | -0.3 | 0 | -1
5 | Cc1ccsc1C(=O)OCC(=O)c1cc2ccccc2o1 | 5 | -4.1 | -0.7%[38.3 µM] | -0.1 | 14 | -8
6 | CC(C)OCCCNC(=O)C1CC(=O)N(C2CCCCCCC2)C1 (stereo not given) | -3 | -0.7 | 0.1% | -0.7 | 7 | -5
7 | Cc1cc(Cl)cc(C)c1OCC(=O)N1CCN(c2ncccn2)CC1 | -8 | -5.3 | 0.1% | 0.7 | 0 | -2
8 | Cc1cc(NC(=O)Cc2ccccc2[N+](=O)[O-])no1 | 3 | -4.2 | -0.1% | -0.3 | -1 | -6
9 | CC(NC(=O)/C(C#N)=C/c1cccs1)c1ccccc1 (stereo not given) | -4 | 3.6 | -0.1% | 1.8 | 0 | 2
10 | O=C1OCCN1c1ccccc1 | -7 | -2.0 | -1.1% | 0.8 | 8 | 0
11 | N#C/C(=C\c1c(N2CCN(c3ccccc3)CC2)nc2ccccn2c1=O)C(N)=O | -6 | 5.4 | 0.4% | 0.4 | -17 | 1
12 | Cc1cc(NC(=O)c2ccc(C(C)(C)C)cc2)no1 | 15 | 5.1 | 5.1% | 0.7 | -2 | 5
13 | COc1cccc(/C=C/C(=O)OCC(=O)N2c3ccccc3CC2C)c1OC (stereo not given) | 0 | -8.1 | 0.5% | 3.1 | -12 | -21
14 | Cc1cc(C)cc(NC(=O)C2CCCN2S(=O)(=O)c2ccc3c(c2)n(C)c(=O)c(=O)n3C)c1 (stereo not given) | -15 | -1.2 | 0.0% | -0.1 | 0 | -1
15 | CC1CC(OC(=O)C(O)c2ccccc2)CC(C)(C)N1C (stereo not given) | -3 | -1.2 | -0.5% | -0.6 | 19 | -6
16 | CCOc1ccc(/C=N/NC(N)=S)cc1 | -1 | -1.2 | -0.6% | 1.2 | -9 | -21
17 | O=C(Oc1ccc(N2C(=O)CCC2=O)cc1)c1ccccc1 | -18 | 1.9 | -1.7% | 0.4 | -7 | 11
18 | COc1cccc(NC(=S)Nc2cc(C)cc(C)n2)c1 | 50 | -1.9 | -0.8% | 1.0 | -3 | -6
19 | Cc1ccc(CN2CCN(C3CCNCC3)C(=O)C2=O)cc1 | -2 | / | 3.6% | 0.4 | / | /
20 | O=C(CSc1nc2ccccc2c(=O)n1Cc1ccco1)c1ccccc1 | 9 | -0.1 | 13%[38.3 µM] | 1.1 | -5 | -20
21 | CC(C)NC(=O)CCC(=O)N1Cc2ccccc2Oc2ncccc21 | -7 | / | 0.9% | -0.4 | / | /
22 | C[C@]12CC[C@H](O)CC1=CCC1C2CC[C@@]2(C)C1CC[C@@H]2NC(=O)[C@@H](N)Cc1cnc[nH]1 (stereo not given in full) | -7 | -0.5 | 4.5% | -0.5 | ? | -6
23 | CC(C)(C)c1ccc(OCCCC(=O)N2CCOCC2)cc1 | 7 | 4.2 | 0.6% | 0.9 | 7 | -9
24 | CC(=O)Nc1cccc(C(=O)NCc2ccc3c(c2)CCN3C(=O)c2ccc(F)cc2)c1 | 29 | / | 1.5% | 1.8 | / | /
25 | O=C(Nc1ccc(N2CCOCC2)c(Cl)c1)c1ccc(Cl)cc1 | 4 | 0.2 | 4.5% | -0.8 | 1 | -24
26 | Cc1ccccc1NC(=O)Cc1nc(COC(=O)c2cccc([N+](=O)[O-])c2)cs1 | -8 | 2.5 | -0.7% | 1.5 | 4 | -10
27 | Cc1ccc(C(=O)N2CCC(C)CC2)cc1C | 1 | -1.1 | / | -0.2 | -2 | 0
28 | COc1ccccc1CNC(=O)C(C)Sc1ccsc1[N+](=O)[O-] (stereo not given) | 4 | -6.1 | 16% | 1.0 | -9 | -7
29 | Cc1ccc(Cl)cc1N1C(=O)N(Cc2ccc(C#N)cc2)c2ccccc2S1(=O)=O | -7 | / | -0.5% | -0.8 | / | /
30 | Cc1cc(O)c(-c2cc(O)c(C)cc2O)cc1O | / | ? | -0.8% | / | -16 | -82
31 | COc1ccc(OC)c(N(C(=O)c2snc(C(N)=O)c2N)C(C(=O)NCc2ccccc2)c2ccc(O)cc2)c1 (stereo not given) | -11 | -0.4 | -2.7% | 1.6 | 1 | 1
32 | Cc1ccc(NC(=O)C(Cc2ccccc2)NS(=O)(=O)c2ccc3c(c2)oc(=O)n3C)cc1C (stereo not given) | -12 | / | 0.2% | 0.3 | / | /
33 | O=C(NCc1ccncc1)C(=O)Nc1nc2ccccc2s1 | 9 | -4.6 | -1.5% | 2.5 | 4 | -5
34 | Cc1ccsc1C(=O)Nc1ccccc1N1CCCC1 | 13 | 2.4 | -1.7% | 1.8 | -14 | -8
35 | CN(CC(=O)Nc1c(Cl)cccc1Cl)C(=O)Cc1ccc(S(=O)(=O)N2CCOCC2)s1 | -11 | 0.7 | -1.7% | 0.4 | 0 | 6
36 | COc1ccc(-c2nc3ccccc3nc2-c2ccccc2)cc1 | -1 | -0.1 | 1.4% | 3.4 | 46 | -2
37 | CCOC(=O)c1ccc(Cn2c(-c3ccccc3)nnc2-c2ccccc2)o1 | 49 | 1.4 | 2.0% | 5.7 | -3 | -1
38 | COc1cccc(NC(=O)CN(C)S(=O)(=O)c2ccc3c(c2)NC(=O)CS3)c1 | 11 | ? | 0.9% | 0.0 | -18 | -11
39 | O=C(O)c1cc(N/N=C/c2ccncc2)ccc1Cl | -8 | -0.1 | -0.9% | -0.2 | 15 | 6
40 | Cc1cc(C)cc(-c2nnc(SCC(=O)c3ccc4c(c3)OCCO4)o2)c1 | 3 | -0.2 | 1.1%[38.3 µM] | 1.5 | 2 | -5
41 | N#Cc1c(-c2ccc(F)cc2)nc2n(c1=O)CCS2 | 17 | -5.9 | 1.8%[38.3 µM] | 0.4 | 3 | -4
42 | Brc1cccc(-c2nnc3sc(CN4CCC5(CC4)OCCO5)cn23)c1 | -5 | 3.4 | -2.1%[38.3 µM] | -0.2 | 2 | -13
43 | Cc1ccc(C)c(SCC(=O)Nc2ccc(C)c(S(=O)(=O)N3CCOCC3)c2)c1 | -11 | -0.9 | 16% | 3.0 | -1 | -1
44 | Cc1ccc([C@@H]2[C@@H]3C(=O)N(c4ccccc4)C(=O)[C@@H]3[C@]3(C)C(=O)N(Cc4ccc(-c5ccccc5)cc4)CC(=O)N23)o1 | 6 | -1.0 | 1.8% | -0.7 | -19 | -9
45 | COc1cc(NC(=O)CC(C)n2nc(C)cc2C)cc(OC)c1 (stereo not given) | 6 | / | -0.6% | 0.7 | / | /
46 | O=C(COC(=O)c1nc(Cl)ccc1Cl)NCc1ccc(Cl)cc1 | -1 | 6.3 | 0.4% | 0.4 | 0 | -3
47 | Cc1ccc(-c2nn(C)c(=O)c3ccccc23)cc1CN1CCCCC1 | -4 | -0.7 | 0.8% | 4.2 | -5 | -2
48 | O=C(NC1(C(=O)NC2CCCC2)CCCCC1)c1ccc2c(c1)OCO2 | -2 | -3.6 | 0.7% | 0.1 | 2 | -3
49 | OCC[C@@H]1C[C@H](O)[C@@H](O)[C@]2(CCCc3ccccc3O2)O1 | 7 | -3.3 | 0.6% | -0.3 | 4 | -8
50 | Cc1cc(NS(=O)(=O)c2ccc(NC(=S)Nc3ccc(Cl)cc3C)cc2)no1 | 14 | -6.1 | -1.0% | -0.4 | 1 | -15
51 | O=C(COc1ccccc1Cl)Nc1ccc2oc(-c3ccccc3F)nc2c1 | -7 | / | 1.1% | 2.0 | / | /
52 | COc1ccccc1S(=O)(=O)Cc1ccc(C(=O)NCc2ccc3c(c2)OCO3)o1 | -5 | -3.5 | 0.1% | -0.7 | 6 | -4
53 | CC(CCc1ccccc1)NC(=O)c1cccc([N+](=O)[O-])c1 (stereo not given) | 29 | -3.2 | -2.3% | 0.3 | -6 | -22
54 | Cc1ccc(-c2noc(CCCC(=O)NCC3CCCO3)n2)cc1 (stereo not given) | -7 | -1.3 | 1.3% | -0.4 | -1 | -7
55 | CCOc1cc(/C=N/Nc2ncnc(Cl)c2N)ccc1O | -6 | 4.2 | 1.7% | -0.4 | ? | 11
56 | COc1cc(OC)c(N2CC(C(=O)Nc3cccc(C(=O)NC4CC4)c3)CC2=O)cc1Cl (stereo not given) | -12 | -3.1 | -1.3% | 2.0 | ? | 3
57 | O=C(NCc1ccc2c(c1)OCO2)c1ccc(Cl)c(S(=O)(=O)N2CCOCC2)c1 | -12 | 1.2 | -3.1%[38.3 µM] | -0.5 | 0 | -11
58 | CCOc1ccccc1N(CC(=O)N1CCCCCC1)S(C)(=O)=O | 0 | 0.5 | 0.1% | -0.8 | 1 | 12
59 | O=C(NCCc1ccccc1)C1CCCN1C(=O)Nc1ccc(F)cc1 (stereo not given) | -7 | -1.3 | 1.8% | 0.2 | 1 | -11
60 | O=C/C(=C\Nc1ccc(Cl)cn1)c1nc2cc(Cl)ccc2o1 | 10 | -1.9 | 2.4% | 0.1 | -2 | -1

Entries listed so far that have a COOH group:
cpd | SMILES | TRPML1 blocker | D2 ag | PINK1 expr mod | TRPML1 ag | Six1-Eya2 inh | D2 potentiator
3 | CCCc1cc(=O)oc2c3c(cc(OCC(=O)NCC4CCC(C(=O)O)CC4)c12)OC(C)(C)CC3 (stereo not given) | / | -3.2 | -0.2% | / | 3 | -24
39 | O=C(O)c1cc(N/N=C/c2ccncc2)ccc1Cl | -8 | -0.1 | -0.9% | -0.2 | 15 | 6

Next compounds follow:
cpd | SMILES | TRPML1 blocker | D2 ag | PINK1 expr mod | TRPML1 ag | Six1-Eya2 inh | D2 potentiator
61 | COc1ccc(OC)c(-c2csc(NC(=O)Cn3[nH]c(=O)c4ccccc4c3=O)n2)c1 | -4 | -5.5 | 5.2% | 0.9 | 22 | -23
62 | CN(c1ccc(C(=O)NCC2CCCO2)cc1)S(=O)(=O)c1ccc(Cl)cc1 (stereo not given) | 0 | 0.3 | 0.6% | -0.8 | 0 | -13
63 | CCN(C(=O)COC(=O)C1COc2ccccc2O1)c1c(N)n(Cc2ccccc2)c(=O)[nH]c1=O (stereo not given) | 9 | 5.3 | -0.1% | -0.6 | 1 | -6
64 | O=C(NCc1cccnc1)c1nn(-c2ccc(Cl)cc2)nc1CO | 2 | / | 0.3% | 0.7 | / | /
65 | CCCCNC(=O)N1CCCC(N(C)CCc2ccc(OC)c(OC)c2)C1 (stereo not given) | -3 | -4.1 | 0.2% | 0.2 | 5 | -63
66 | Cn1c(-c2ncc(F)cc2F)cc2onc(-c3c(F)cccc3Cl)c2c1=O | -4 | -6.3 | 1.0% | 0.1 | -14 | -9

Not a hit list; any-hit rate near 1%.
